# Source: PubChem BioAssay (National Center for Advancing Translational Sciences (NCATS))
# Resorufin fluor = qHTS Assay for Spectroscopic Profiling in Resorufin Spectral Region | Compound fluorescence, resorufin region 547/598 nm, buffer; stronger effect = higher value | max dye-equivalent concentration, M | 0.04% of 59,000 active | AID 588, 2007; active = above 10 nM dye equivalent; inconclusive = 1 to 10 nM; inactive = 1 nM or less; a few of its hits are not listed in these tables; note: highest value over a series up to 38 µM
#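 Dye-equivalent concentration values derive from comparing each well's 547/598 nm fluorescence against resorufin standards included on every plate. Incubation was 15 min at room temperature in 100 mM Tris, pH 8.0.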
# TSHR agonist = qHTS Assay for Agonists of the Thyroid Stimulating Hormone Receptor; 0.48% of 73,000 active; Thyrotropin receptor (Homo sapiens), P16473; HEK293-CNG-TSHR cells (CNG channel as cAMP sensor), membrane potential dye, cAMP; Potency, µM (titrated, usually from 57.1 µM), inactives show at the highest dose activation, usual class: activators; AID 926, 2007; active = well fitted activation curve of enough size with the parental cells flat; inconclusive = any curve in the parental cells; inactive = parental cells flat and receptor cells flat or falling; note: potency is the fitted concentration of half-maximal effect; % of control where 0% means no effect; weak receptor curves with flat parental cells got no call and are not listed
# Target sequence (P16473 whole entry, looked up): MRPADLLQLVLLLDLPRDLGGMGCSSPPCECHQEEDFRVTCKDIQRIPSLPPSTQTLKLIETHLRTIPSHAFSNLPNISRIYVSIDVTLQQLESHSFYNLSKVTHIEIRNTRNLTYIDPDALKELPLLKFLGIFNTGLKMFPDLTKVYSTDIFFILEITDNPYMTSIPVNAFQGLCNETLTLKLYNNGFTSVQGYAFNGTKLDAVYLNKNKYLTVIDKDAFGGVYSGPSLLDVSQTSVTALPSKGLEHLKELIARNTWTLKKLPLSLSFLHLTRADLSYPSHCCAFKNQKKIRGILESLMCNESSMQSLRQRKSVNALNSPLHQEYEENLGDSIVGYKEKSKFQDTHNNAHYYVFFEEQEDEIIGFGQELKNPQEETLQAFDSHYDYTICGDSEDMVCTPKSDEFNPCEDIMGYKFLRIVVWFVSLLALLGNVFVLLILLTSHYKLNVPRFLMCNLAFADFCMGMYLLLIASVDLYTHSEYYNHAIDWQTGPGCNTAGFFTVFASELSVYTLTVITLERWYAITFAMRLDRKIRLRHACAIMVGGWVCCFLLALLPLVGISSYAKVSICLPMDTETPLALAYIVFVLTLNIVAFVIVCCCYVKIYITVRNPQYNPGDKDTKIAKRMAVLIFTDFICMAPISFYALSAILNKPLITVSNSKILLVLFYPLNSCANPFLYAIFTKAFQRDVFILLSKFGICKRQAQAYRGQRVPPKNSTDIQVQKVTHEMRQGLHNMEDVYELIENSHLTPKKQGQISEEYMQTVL
#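 HEK 293 cells stably expressing TSHR and a cAMP-gated CNG channel; parental CNG-only cells as counterscreen. Cells preloaded 60 min with membrane potential dye plus 100 uM RO 20-1724, then compound 30 min; fluorescence read at 590 nm.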
# AID923 = qHTS Assay for Allosteric/Competitive Inhibitors of Caspase-1: Spectroscopic Profiling in AFC Spectral Region. AID 923, 2007. compound fluorescence, AFC spectral region (405/520 nm); almost no hit is shown here. Potency, µM (top dose mostly 57.5 µM), inactives show at the top dose fluorescence increase, most hits filed as activators. 1.1% of 75,000 active; active = well fitted activation curve with a large enough effect; inconclusive = small, poorly fitted or top-dose-only effect;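 note: potency is the fitted concentration of half-maximal effect; 0% is about no effect; scaled to a free AFC standard on each plate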
#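 Titrations up to 57 uM read every 20 sec for 3 min (405/520 nm) with 50 nM caspase 1 and 5 uM Ac-WEHD-AFC, pH 7.5 HEPES buffer. Fluorescence-vs-time intercept gave baseline, scaled against on-plate AFC standard.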
# A488 autofl = qHTS Assay for Spectroscopic Profiling in A488 Spectral Region; max dye equivalency, M; compound autofluorescence, A488 spectral region, dye equivalency; stronger effect = higher value; 0.1% of 59,000 active; AID 591, 2007; active = above 10 nM dye equivalent; inconclusive = 1 to 10 nM; inactive = 1 nM or less; about half of its hits are not listed in these tables;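 note: highest value over a series up to 38 µM; compound alone in buffer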
#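 Read-out: relative fluorescence at 480/540 nm, expressed as Alexa 488 dye-equivalent concentration from a six-point A488 standard included per plate. Conditions: 100 mM Tris, pH 8.0; 15 min incubation, room temperature.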
# A647 autofl = qHTS Assay for Spectroscopic Profiling in A647 Spectral Region; AID 592, 2007; Compound fluorescence, A647 channel (570/671 nm), Tris buffer; max dye-equivalent concentration, M; 59,000 tested, under 10 active; active means above 1 µM dye equivalent; inconclusive means 0.1 to 1 µM; inactive means 0.1 µM or less;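 note: values scaled relative to a standard on each plate; highest value over a series up to 38 µM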
#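 Buffer was dispensed, compounds and Alexa 647 standards were pin-transferred, and plates sat 15 min at room temperature. Intensity at 570/671 nm was then converted to dye-equivalent concentration using the plate's A647 standard curve.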
# Numbers without * were called inactive; i = inactive; ? = inconclusive; . = no result given; [ ] = dose if it differs, or a comment. Only part of the results is shown. The share of hits here may be higher or lower than overall.
# The opening two records, to show the layout:
# Letter code – A = Resorufin fluor; B = TSHR agonist; C = AID923; D = A488 autofl; E = A647 autofl
CC(=O)NC(C)C(=O)OCc1ccc(Cl)cc1Cl (stereo not given)
  A: i; B: 0%; C: 0.1%; D: i; E: 1.9e-08
COc1ccc(-c2nc3cnc(Nc4cccc(OC)c4)nc3n(C)c2=O)cc1
  A: i; B: -8%; C: 2.6%; D: i; E: 1.3e-09

# The whole of this part, from the start:
# Letter code – A = Resorufin fluor; B = TSHR agonist; C = AID923; D = A488 autofl; E = A647 autofl
CC(=O)NC(C)C(=O)OCc1ccc(Cl)cc1Cl (stereo not given)
  A: i; B: 0%; C: 0.1%; D: i; E: 1.9e-08
COc1ccc(-c2nc3cnc(Nc4cccc(OC)c4)nc3n(C)c2=O)cc1
  A: i; B: -8%; C: 2.6%; D: i; E: 1.3e-09
CCCCN(C(=O)c1ccco1)c1nnc(-c2cc(OC)c(OC)c(OC)c2)s1
  A: i; B: 13%; C: -0.1%; D: i; E: 6.5e-08
CCn1cc(C(=O)NC2CCCCC2)c(=O)c2cc(S(=O)(=O)N(C)C)ccc21
  A: .; B: -5%; C: 0.8%; D: .; E: .
CSCc1nnc(NC(=O)c2ccc(S(=O)(=O)N(CC(C)C)CC(C)C)cc2)o1
  A: i; B: ?; C: -0.4%; D: i; E: 5.1e-09
CC1=C(C(=O)OCC2CCCO2)C(c2ccc(C)o2)C2=C(CC(c3ccc(N(C)C)cc3)CC2=O)N1 (stereo not given)
  A: i; B: 1%; C: 2.8%; D: i; E: 1.5e-09
CCN(CC)c1ccc(/C=N/n2c(=S)[nH]nc(C)c2=O)cc1
  A: .; B: -5%; C: 2.5%; D: .; E: .
CCc1nc(SC)[nH]c(=O)c1C
  A: i; B: 6%; C: 1.1%; D: i; E: 1e-09
COC(=O)[C@@]1(Cc2ccc(OC)cc2)[C@H]2c3cc(C(=O)N(C)C)n(Cc4ccccn4)c3C[C@H]2CN1C(=O)c1ccccc1
  A: .; B: ?; C: 1.5%; D: .; E: .
O=C(Nc1cccnc1)c1ccc(Oc2ccccc2)cc1
  A: i; B: 22%; C: -0.8%; D: i; E: 9.2e-09
Cc1nc2ccccc2c2c1C(=O)N(C(C)C)C2=O
  A: i; B: -2%; C: -0.3%; D: i; E: 1e-09
CC(C)c1ccc(-c2nnn(Cc3nc4ccccc4s3)n2)cc1
  A: i; B: ?; C: -0.3%; D: i; E: 2.3e-09
O=C(NCc1ccccn1)c1cc(-c2ccccc2)on1
  A: i; B: 1%; C: 1.3%; D: i; E: 4e-08
Clc1ccc2oc(-c3ccccn3)nc2c1
  A: i; B: -3%; C: -0.8%; D: i; E: 6.6e-09
COc1ccc(C(=O)N2CCC[C@@]3(CCN(C(=O)NC(C)C)C3)C2)cc1
  A: i; B: 4%; C: 2.1%; D: i; E: 6.7e-09
O=C(CSc1nnc(CNc2ccc(F)cc2)n1Cc1ccco1)N1CCCC1
  A: i; B: -1%; C: 1.0%; D: i; E: 2.8e-08
CCC(c1nnnn1Cc1ccc2c(c1)OCO2)N1CCN(c2ccc(OC)cc2)CC1 (stereo not given)
  A: i; B: ?; C: 0.0%; D: i; E: 2.5e-08
COCCNc1nc2c(c(=O)n(C)c(=O)n2C)n1Cc1cccc(C(F)(F)F)c1
  A: i; B: .; C: .; D: i; E: 8.8e-08
OCc1nc2ccccc2n1CC(O)COc1ccccc1 (stereo not given)
  A: i; B: 12%; C: -0.3%; D: i; E: 6.3e-09
CC(C)NC(=O)CN(C)S(=O)(=O)c1ccc(F)cc1
  A: i; B: -5%[11.4 µM]; C: 2.1%; D: i; E: 6.9e-09
CN(C)Cc1cc(C(C)(C)c2cc(CN(C)C)c(O)c(CN(C)C)c2)cc(CN(C)C)c1O
  A: i; B: 1%; C: 0.4%; D: i; E: 1e-09
C[C@@H](C(=O)Nc1ccc2ccccc2c1)[C@@H]1C[C@@]1(C)[C@@H](NS(=O)(=O)c1ccccc1)c1ccccc1
  A: .; B: 5%; C: 3.9%; D: .; E: .
FC(F)(F)c1cccc(-c2nnc3ccc(C(F)(F)F)cn23)c1
  A: i; B: 14%; C: -1.5%; D: i; E: 1.1e-08
COCCN1C(=O)c2ccc(C(=O)O)cc2C1=O
  A: i; B: 3%; C: -1.4%; D: i; E: 3.8e-09
O=C(CCN1CCN(c2ccc(F)cc2)CC1)Nc1ccc(F)cc1
  A: i; B: 1%; C: 0.5%; D: i; E: 3e-08
NS(=O)(=O)c1cc([C@@]2(O)NC(=O)c3ccccc32)ccc1Cl
  A: i; B: -7%[25.6 µM]; C: 0.5%[25.7 µM]; D: i; E: 4.1e-09
COc1ccc(OC)c(C2/C(=C(\O)c3ccc4c(c3)OCCO4)C(=O)C(=O)N2CCCN(C)C)c1 (stereo not given)
  A: i; B: .; C: .; D: i; E: 1e-09
CCCCOC(=O)c1cc(=O)[nH]c2ccccc12
  A: i; B: ?; C: 0.7%; D: i; E: 3.6e-08
O=C(Nc1cc(C(F)(F)F)ccc1N1CCCC1)c1ccc2c(c1)OCO2
  A: i; B: ?; C: -2.5%; D: i; E: 2.8e-08
O=C(c1csnn1)N1CCC[C@@]2(CCN(Cc3nccs3)C2)C1
  A: i; B: ?; C: -0.1%; D: i; E: 2.1e-08
N#Cc1nc(-c2ccco2)oc1N1CCN(C(c2ccccc2)c2ccccc2)CC1
  A: i; B: 4µM*; C: 0.6%; D: i; E: 9.5e-09
NC(=O)SCC(=O)Nc1cccc(Cl)c1
  A: .; B: -14%; C: 0.4%; D: .; E: .
CCCc1nnc(NC(=O)NCCN2C(=O)C3C4C=CC(C4)C3C2=O)s1 (stereo not given)
  A: .; B: -2%; C: 2.4%; D: .; E: .
Nc1cccc(C(=O)Nc2ccc3nc(-c4cccnc4)[nH]c3c2)c1
  A: i; B: -5%; C: -1.1%; D: i; E: 1.5e-09
COc1cccc(NC=C2C(=O)OC3(CCCCC3)OC2=O)c1
  A: .; B: 17%; C: 2.5%; D: .; E: .
O=C(NCc1ccccc1)c1ccc(Cc2nc3ccccc3[nH]2)cc1
  A: .; B: -6%; C: 0.8%; D: .; E: .
CC1CCN(C(=O)CCCOc2cc(=O)n(C)c3ccccc23)CC1
  A: i; B: 0%[11.4 µM]; C: -1.7%; D: i; E: 1.2e-08
COc1ccc(O[C@H]2C=C[C@@H](c3ccccc3)O[C@@H]2CO/N=C(\C)CCN2CCCc3nc(C)c(C)cc32)cc1
  A: .; B: 4%[11.4 µM]; C: -1.6%[11.5 µM]; D: .; E: .
CCc1nc(NCc2ccco2)c2oc3ccccc3c2n1
  A: i; B: .; C: -1.7%; D: i; E: 1.9e-08
CCOc1ccc(CSC2=NCCN2)cc1Cl
  A: i; B: 9%; C: 1.1%; D: i; E: 1e-09
COc1ccc(NC(=O)c2ccc(-c3ccc(-c4noc(C)n4)cc3C)cc2)cc1OCCN(C)C
  A: .; B: -23%; C: -2.6%; D: .; E: .
CNc1cc(NS(=O)(=O)c2ccc(N)cc2)nc(NC)n1
  A: i; B: 3%; C: 1.2%; D: i; E: 1e-09
CC(=O)OCC1OC(C#Cc2ccc(C)cc2C)C=CC1OC(C)=O (stereo not given)
  A: .; B: 8%[11.4 µM]; C: 7.7%[11.5 µM]; D: .; E: .
O=C(CSCc1cccc(Br)c1)N1CCOCC1
  A: .; B: 7%; C: 0.8%; D: .; E: .
CN(CC(=O)N1CCCCCC1)S(=O)(=O)c1cccc2cccnc12
  A: .; B: -7%; C: -1.2%; D: .; E: .
CCN1CCCC1CNC(=O)CS(=O)(=O)Cc1nc(-c2ccccc2C)oc1C (stereo not given)
  A: .; B: 7%; C: -0.6%; D: .; E: .
Cc1ccccc1-n1c(=O)/c(=C\c2ccco2)s/c1=C(/C#N)C(=O)Nc1ccccc1
  A: i; B: .; C: .; D: i; E: 1e-09
Cn1c(=O)oc2cc(S(=O)(=O)NCc3ccco3)ccc21
  A: .; B: 0%; C: 1.4%; D: .; E: .

# Ordered by molar mass (smallest number first): part of the list above
# Letter code – A = Resorufin fluor; B = TSHR agonist; C = AID923; D = A488 autofl; E = A647 autofl
NC(=O)SCC(=O)Nc1cccc(Cl)c1
  A: .; B: -14%; C: 0.4%; D: .; E: .
CCOc1ccc(CSC2=NCCN2)cc1Cl
  A: i; B: 9%; C: 1.1%; D: i; E: 1e-09
CCc1nc(NCc2ccco2)c2oc3ccccc3c2n1
  A: i; B: .; C: -1.7%; D: i; E: 1.9e-08
CNc1cc(NS(=O)(=O)c2ccc(N)cc2)nc(NC)n1
  A: i; B: 3%; C: 1.2%; D: i; E: 1e-09
COc1cccc(NC=C2C(=O)OC3(CCCCC3)OC2=O)c1
  A: .; B: 17%; C: 2.5%; D: .; E: .
Nc1cccc(C(=O)Nc2ccc3nc(-c4cccnc4)[nH]c3c2)c1
  A: i; B: -5%; C: -1.1%; D: i; E: 1.5e-09
O=C(CSCc1cccc(Br)c1)N1CCOCC1
  A: .; B: 7%; C: 0.8%; D: .; E: .
O=C(NCc1ccccc1)c1ccc(Cc2nc3ccccc3[nH]2)cc1
  A: .; B: -6%; C: 0.8%; D: .; E: .
CN(CC(=O)N1CCCCCC1)S(=O)(=O)c1cccc2cccnc12
  A: .; B: -7%; C: -1.2%; D: .; E: .
CCCc1nnc(NC(=O)NCCN2C(=O)C3C4C=CC(C4)C3C2=O)s1 (stereo not given)
  A: .; B: -2%; C: 2.4%; D: .; E: .
N#Cc1nc(-c2ccco2)oc1N1CCN(C(c2ccccc2)c2ccccc2)CC1
  A: i; B: 4µM*; C: 0.6%; D: i; E: 9.5e-09
Cc1ccccc1-n1c(=O)/c(=C\c2ccco2)s/c1=C(/C#N)C(=O)Nc1ccccc1
  A: i; B: .; C: .; D: i; E: 1e-09
COc1ccc(NC(=O)c2ccc(-c3ccc(-c4noc(C)n4)cc3C)cc2)cc1OCCN(C)C
  A: .; B: -23%; C: -2.6%; D: .; E: .
COc1ccc(O[C@H]2C=C[C@@H](c3ccccc3)O[C@@H]2CO/N=C(\C)CCN2CCCc3nc(C)c(C)cc32)cc1
  A: .; B: 4%[11.4 µM]; C: -1.6%[11.5 µM]; D: .; E: .
